# D2 potentiator – potentiates the human D2 dopamine receptor allosterically. AID 624464. DiscoveRx D2 beta-arrestin cells, luminescence, 90 min; 100% = 57 uM dopamine signal. 360,000 tested, 0.23% active. P14416. potentiation, % (no concentration beside the values); active = potentiation of 50% or more; inconclusive = 30% to 50%; inactive = 30% or less;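 further: compound concentration not given in the record; tested on top of an EC20 dose of dopamine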
#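 PathHunter D2 cells, attached overnight at 37 deg C, received compound in DMSO plus dopamine at EC20 (50 nM final) for 90 min at 37 deg C. Beta-arrestin recruitment was read as luminescence after 1 h with detection reagent at ambient temperature.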
# TRPML1 agonist – activates the human TRPML1 channel | Q9GZU1 | TRPML1-expressing cells, Ca2+ dye fluorescence, FDSS; host cell line not named in the record; reference of the full effect not given here | activation, % (no concentration beside the values) | 410,000 tested, 0.12% active | AID 624414; in the data active = activation above about 50%; inconclusive = about 30% to 50%; inactive = below about 30%; further: 0% is about no effect; the text of the record puts the active cut at 80%
#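 Kinetic FDSS Ca2+ read in Tet-induced TRPML1-DL cells (ABD Ca8 dye plus quencher, 45-90 min RT loading): baseline, then compound, then 110 s agonist window; EC80 agonist 54-4 at 4uM final added afterwards for a 110 s antagonist window.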
# Six1-Eya2 blk – Six1/Eya2 interaction inhibition; 360,000 tested, 0.56% active; Q15475+O00167; activity change, % (no concentration beside the values); AlphaScreen GST-Six1/His-Eya2 binding, biochemical; stronger effect = lower value; control for the full effect not named in the record; AID 651725; in the data active = activity change below about -65%; inconclusive = about -30% to -65%; inactive = above about -30%; further: on the % scale 0 is the no-effect control and ±100 the full control effect; compound concentration not given in the record
# Target sequence (O00167 whole entry, looked up): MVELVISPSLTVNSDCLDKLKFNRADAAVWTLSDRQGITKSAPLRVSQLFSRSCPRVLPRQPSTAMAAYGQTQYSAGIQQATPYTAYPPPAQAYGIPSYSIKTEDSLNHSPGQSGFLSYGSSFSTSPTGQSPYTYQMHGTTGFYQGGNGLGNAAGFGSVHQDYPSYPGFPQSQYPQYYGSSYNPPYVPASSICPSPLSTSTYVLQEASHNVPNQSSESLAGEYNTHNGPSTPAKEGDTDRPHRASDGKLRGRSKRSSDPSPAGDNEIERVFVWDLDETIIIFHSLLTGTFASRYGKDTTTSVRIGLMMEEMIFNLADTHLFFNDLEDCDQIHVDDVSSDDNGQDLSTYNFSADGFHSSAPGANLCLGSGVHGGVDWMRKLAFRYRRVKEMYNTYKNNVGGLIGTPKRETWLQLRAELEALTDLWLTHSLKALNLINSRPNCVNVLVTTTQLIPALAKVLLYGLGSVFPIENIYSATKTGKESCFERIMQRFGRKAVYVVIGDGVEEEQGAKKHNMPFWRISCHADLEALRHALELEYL
# Target sequence (Q15475 whole entry, looked up): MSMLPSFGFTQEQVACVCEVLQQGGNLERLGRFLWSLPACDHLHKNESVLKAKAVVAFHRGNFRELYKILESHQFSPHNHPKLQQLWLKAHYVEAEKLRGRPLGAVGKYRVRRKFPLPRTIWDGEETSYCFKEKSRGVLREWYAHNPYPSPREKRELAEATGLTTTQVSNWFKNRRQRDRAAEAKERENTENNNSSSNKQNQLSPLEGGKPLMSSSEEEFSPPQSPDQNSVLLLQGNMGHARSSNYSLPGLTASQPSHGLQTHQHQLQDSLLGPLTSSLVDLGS
#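 Homogeneous AlphaScreen proximity assay pairing GST-Six1 with His-tagged Eya2 (added as 5X mix: 250 nM and 500 nM) in 50 mM Tris pH 8.0, 300 mM NaCl, 1 mM TCEP. Glutathione donor and nickel acceptor beads; 1 h, 37 °C, dark.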
# TRPML1 inh – human mucolipin-1 channel inhibition | Q9GZU1 | TRPML1-inducible cells, Ca2+ dye fluorescence, FDSS; stronger effect = lower value; inhibition of EC80 agonist-evoked calcium signal | activity change, negative = inhibition, % (concentration not given with the values) | 390,000 tested, 0.02% active; in the data active means activity change below about -50%; inconclusive means about -30% to -50%; inactive means above about -30%;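 further: stimulus is agonist 54-4 at its EC80 concentration; on the % scale 0 is the no-effect control and ±100 the full control effect; compound concentration not given in the record; the text of the record puts the active cut at -80%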
#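 Tet-induced TRPML1-DL cells loaded with Ca8 no-wash calcium dye were read kinetically on FDSS. Compound addition was followed by EC80 agonist 54-4 (4 uM final); inhibition was read over 110 s.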
# D2 agonist – human D2 receptor agonism in beta-arrestin assay. AID 624465. 360,000 tested, 0.084% active. activation, % (no concentration beside the values). DiscoveRx PathHunter D2 beta-arrestin, luminescence, 90 min; 100% = 57 uM dopamine signal. P14416; in the data active = activation above about 40%; inconclusive = about 15% to 40%; inactive = below about 15%; further: compound concentration not given in the record; the text of the record calls up to 30% inactive
#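 Agonist mode: compounds alone added to overnight-plated D2 PathHunter cells for 90 min at 37 C, with 57 uM final dopamine (EC100) defining full response. Beta-arrestin recruitment detected by chemiluminescent reagent, read after 1 h at ambient temperature.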
# PINK1 modulator – changes PINK1 expression; PINK1 immunofluorescence, high-content cytometry, 24 h; Potency, µM (highest dose often 76.6 µM), for the others: top-dose activation (PINK1 increase), usual class: activators; 410,000 tested, 0.2% active; AID 624263; active = well fitted activation curve with a large enough effect; inconclusive = small, poorly fitted or top-dose-only effect; inactive = flat fitted curve, though single readings scatter; cell line not stated here;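 further: potency means the concentration at half of the fitted maximal effect; % of control where 0% means no effect; nearly all actives have a fitted effect of over 65% in size; a mitochondrial uncoupler was the plate control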
#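 Cells are seeded, rested 12 hours, then given compound at five concentrations or DMSO for 24 hours. After fixation, blocking and antibody staining, PINK1 amount and mitochondrial localization are scored; CCCP serves as control.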
# * hit, by the source's call; u = inconclusive; x = not tested or not shown; & = joins results of further samples; [ ] = dose if it differs, or a comment. An excerpt (hit frequency here may not be typical).
Molecule	D2 potentiator	TRPML1 agonist	Six1-Eya2 blk	TRPML1 inh	D2 agonist	PINK1 modulator
COC(=O)c1ccccc1N=Cc1c(O)[nH]c(=O)[nH]c1=O	-5	3.8	-2	1	5.5	1.4%
CC(C)(O)C(=O)Nc1ccc([N+](=O)[O-])c(C(F)(F)F)c1	1	-0.7	-2	-9	4.7	2.5%
O=c1c2ccccc2nc(-c2ccccc2Cl)n1-c1ccc(O)cc1	-5	-0.6	-4	19	-2.1	6.2%
O=c1c(C=NCCN2CCNCC2)c(O)n(C2CCCCC2)c(=O)n1C1CCCCC1	5	0.6	-18	9	-0.1	27%[38.3 µM]
CCN(CC)C(=O)c1ccc(NC(=O)c2ccc(N3CCCC3=O)cc2)cc1	-10	-0.5	3	19	-2.9	0.2%
CCC(COC(=O)NC)NC(=O)Oc1ccccc1 (stereo not given)	-2	1.2	15	6	-1.4	-1.9%
CC1=C(C(=O)Nc2ccccc2)S(=O)(=O)CCO1	-4	0.8	1	4	-10	-1.2%
CCOC(=O)[C@@H]1[C@H]2COc3ccc(Br)cc3[C@H]2N2C(=O)N(c3cccc(C)c3)C(=O)[C@]12C	1	-0.3	-12	9	-1.6	0.0%
Cc1[nH]c2ccc(OC(F)(F)F)cc2c1CCNCc1cccc([N+](=O)[O-])c1	-16	0.6	-21	4	8.3	1.3%
C=C1[C@H]2CC[C@H]3[C@]4(C)C[C@H](O[C@@H]5OC(CO)[C@@H](OSOOO)[C@H](OS(=O)(=O)O)[C@H]5OC(=O)CC(C)C)C[C@@H](C(=O)O)[C@H]4CC[C@]3(C2)[C@H]1O (stereo not given in full)	-2	0.0	1	27	0.3	1.1%
Cc1cc(C=C2C(=O)NC(=S)NC2=O)c(C)n1-c1ccc2c(c1)OCO2	-3	-0.1	1	-21	2.2	4.9%
CCOC(=O)C1=C(N)OC2=C(C(=O)CCC2)C12C(=O)N(CC(N)=O)c1ccccc12 (stereo not given)	-4	-0.7	0	1	-12	2.7%
OCC#CC[N+]1(CC#Cc2ccccc2)CCCC1	-4	-0.3	6	5	1.1	-0.1%
Oc1cc(Cl)c(Cl)c(Cl)c1	6	-0.7	-3	3	7.9	u
COc1cc2c(cc1OC)C(C(=O)NCCC(C)C)C1CCCCN1C2=O (stereo not given)	10	1.0	8	5	-0.7	1.8%

# More compounds.
Molecule	D2 potentiator	TRPML1 agonist	Six1-Eya2 blk	TRPML1 inh	D2 agonist	PINK1 modulator
Cc1c2cnn(CC(=O)N3CCC4(CC3)OCCO4)c(=O)c2c(C)n1Cc1ccccc1Cl	-8	-0.7	0	-11	-0.9	7.5%
Cc1ccccc1OCCCn1cc(C(=O)C(=O)N2CCOCC2)c2ccccc21	-13	0.4	9	12	-3.7	-0.7%
COc1ccccc1NC(=O)N1C[C@@H]2C[C@@H](C1)c1cccc(=O)n1C2	-29	x	3	x	-7.0	-1.1%
C[C@]12CCC3C(CC[C@H]4C[C@@H](O)CC[C@]34C)C1CC[C@@H]2OC(=O)[C@H](N)CCCCN (stereo not given in full)	-6	-0.4	9	-5	1.1	-1.6%
C=C(C=O)C[C@@H]1C[C@H](O)C2OC3C[C@]4(C)OC5/C=C\CC6OC7C(CC=CCC6OC5CCCC4OC3CC2O1)OC1CC2OC3CC(=O)OC3C[C@@H](C)C[C@@]2(C)OC1C[C@@H]7C (stereo not given in full)	2	0.2	2	-15	-2.9	-1.0%
NC(=O)Cn1cc(C(=O)c2ccccc2F)c2ccccc21	0	-0.5	-5	4	-4.1	0.8%
O=C(N/N=C/c1c(O)n(Cc2ccccc2)c(=O)[nH]c1=O)c1ccccc1	-26	0.8	-71*	33	-9.9	0.6%
CN1CCN(c2cc(N3CCCC3)c([N+](=O)[O-])cc2F)CC1	-31	1.9	-18	-4	-3.0	-1.6%
COc1nc(NC(C)C)nc(N(C#N)CN2C(=O)c3ccccc3S2(=O)=O)n1	0	1.3	2	14	-1.8	u
O=[N+]([O-])NC1=NCN(Cc2ccco2)CN1Cc1ccco1	4	1.1	-14	-11	2.7	2.2%
Cc1ccc(NP(=O)(Oc2ccccc2F)Oc2ccccc2F)cc1C	-6	3.3	2	1	-7.2	-2.3%
CCOC(=O)[C@]12Cc3ccccc3[C@H]1N(Cc1ccccc1)C(=O)c1ccccc12	-2	2.1&-0.6	17	-4	1.1	2.6%
COc1cc(OC)c(OC)cc1CNCCc1ccc2c(c1)OCO2	-46	-0.3	-5	-5	0.4	-1.7%
OCCNCCc1c[nH]c2ccc(OCc3ccccc3)cc12	-8	1.3	-28	2	3.8	0.9%
CN1/C(=C\C=C2C(=O)NC(=S)NC2=O)C(C)(C)c2ccccc21	7	117*	3	-18	-1.7	35µM*

# New compounds follow
Molecule	D2 potentiator	TRPML1 agonist	Six1-Eya2 blk	TRPML1 inh	D2 agonist	PINK1 modulator
CCCCn1c(O)c(C(C)=NCc2ccc(F)cc2)c(=O)[nH]c1=O	0	1.2	-2	4	-2.7	1.4%
CCSC(=O)N1CCCCCC1	10	0.0	6	-3	-1.9	0.2%
Cn1c(O)c(C(=O)c2ccccc2F)c(=O)n(C)c1=O	-2	-0.7	4	0	-0.5	4.0%[38.3 µM]
O=C(Nc1ccccc1Cl)OC1CN2CCC1CC2 (stereo not given)	-12	0.5	0	-6	-2.4	0.4%
Nc1nc(N)c2cnnn2n1	-3	1.3	0	-1	-3.3	0.7%
CCCN(CCC)C(=O)Cc1c(-c2ccc(Cl)cc2)nc2c(Cl)cc(Cl)cn12	-1	-0.5	0	0	-3.5	1.3%
O=[N+]([O-])CCO	-2	-0.8	-2	3	-3.5	0.1%
CC(=O)Nc1ccccc1C(=O)OCC(=O)c1ccc2ccccc2c1	6	-0.4	3	-11	-2.9	7.2%[38.3 µM]
O=C1CC(=O)N(Cc2ccccc2)C(=O)N1CCCCCCN1C(=O)CC(=O)N(Cc2ccccc2)C1=O	-9	3.6	u	11	-0.7	1.6%
CCCc1nc2ccccc2c(=O)n1-c1ccc(OC)cc1	9	0.3	5	17	-2.1	-1.8%
CC(C)CNc1c2c(nc3ccccc13)CCC2	-9	-0.9	-26	-16	-4.4	4.8%
CCOc1ccc(C2(C#N)CC[N+](C)(C)CC2)cc1	-2	-0.4	23	1	-2.9	0.0%
O=C(Nc1ccc(Cl)cc1)Nc1nccs1	-2	0.0	2	-10	-0.4	0.4%
COc1ccc(-n2c(=O)[nH]c3ccccc3c2=O)c(OC)c1	2	-0.1	-10	16	-4.1	0.4%
CSc1nc2ccc(C)cc2c(=O)n1-c1cccnc1	2	-0.3	0	2	-2.8	1.0%

# (more compounds)
Molecule	D2 potentiator	TRPML1 agonist	Six1-Eya2 blk	TRPML1 inh	D2 agonist	PINK1 modulator
COCCOC(=O)C1=C(N)OC(C)=C(C(=O)OC)C12C(=O)Nc1ccccc12 (stereo not given)	-5	-0.4	-1	5	1.3	4.0%[38.3 µM]
Cn1c(O)c(C(c2ccncc2)c2c(O)n(C)c(=S)n(C)c2=O)c(=O)n(C)c1=S	-7	-0.3	-68*	33	-2.4	2.7%
N[C@@H]1CC[C@@]2(O)[C@H]3Cc4ccc(O)c5c4[C@@]2(CCN3CC2CC2)C1O5 (stereo not given in full)	-5	-0.6	-5	7	2.1	-0.5%
Cc1ccsc1C(=O)C1CCCN(Cc2ccc(O)cc2)C1 (stereo not given)	-18	-0.2	-5	-8	-2.4	-1.7%
FC(F)(F)c1ccc(-c2ccc3c(c2)CNCc2cnnn2-3)cc1	-2	-0.6	7	x	-4.7	1.3%

# Some of these compounds in order of formula weight, highest first.
Molecule	D2 potentiator	TRPML1 agonist	Six1-Eya2 blk	TRPML1 inh	D2 agonist	PINK1 modulator
COCCOC(=O)C1=C(N)OC(C)=C(C(=O)OC)C12C(=O)Nc1ccccc12 (stereo not given)	-5	-0.4	-1	5	1.3	4.0%[38.3 µM]
FC(F)(F)c1ccc(-c2ccc3c(c2)CNCc2cnnn2-3)cc1	-2	-0.6	7	x	-4.7	1.3%
Cc1ccsc1C(=O)C1CCCN(Cc2ccc(O)cc2)C1 (stereo not given)	-18	-0.2	-5	-8	-2.4	-1.7%

# 18 structures already listed, arranged by formula weight, highest first.
Molecule	D2 potentiator	TRPML1 agonist	Six1-Eya2 blk	TRPML1 inh	D2 agonist	PINK1 modulator
O=C1CC(=O)N(Cc2ccccc2)C(=O)N1CCCCCCN1C(=O)CC(=O)N(Cc2ccccc2)C1=O	-9	3.6	u	11	-0.7	1.6%
CCCN(CCC)C(=O)Cc1c(-c2ccc(Cl)cc2)nc2c(Cl)cc(Cl)cn12	-1	-0.5	0	0	-3.5	1.3%
Cn1c(O)c(C(c2ccncc2)c2c(O)n(C)c(=S)n(C)c2=O)c(=O)n(C)c1=S	-7	-0.3	-68*	33	-2.4	2.7%
CC(=O)Nc1ccccc1C(=O)OCC(=O)c1ccc2ccccc2c1	6	-0.4	3	-11	-2.9	7.2%[38.3 µM]
N[C@@H]1CC[C@@]2(O)[C@H]3Cc4ccc(O)c5c4[C@@]2(CCN3CC2CC2)C1O5 (stereo not given in full)	-5	-0.6	-5	7	2.1	-0.5%
CCCCn1c(O)c(C(C)=NCc2ccc(F)cc2)c(=O)[nH]c1=O	0	1.2	-2	4	-2.7	1.4%
FC(F)(F)c1ccc(-c2ccc3c(c2)CNCc2cnnn2-3)cc1	-2	-0.6	7	x	-4.7	1.3%
CN1/C(=C\C=C2C(=O)NC(=S)NC2=O)C(C)(C)c2ccccc21	7	117*	3	-18	-1.7	35µM*
COc1ccc(-n2c(=O)[nH]c3ccccc3c2=O)c(OC)c1	2	-0.1	-10	16	-4.1	0.4%
CCCc1nc2ccccc2c(=O)n1-c1ccc(OC)cc1	9	0.3	5	17	-2.1	-1.8%
CSc1nc2ccc(C)cc2c(=O)n1-c1cccnc1	2	-0.3	0	2	-2.8	1.0%
O=C(Nc1ccccc1Cl)OC1CN2CCC1CC2 (stereo not given)	-12	0.5	0	-6	-2.4	0.4%
CCOc1ccc(C2(C#N)CC[N+](C)(C)CC2)cc1	-2	-0.4	23	1	-2.9	0.0%
O=C(Nc1ccc(Cl)cc1)Nc1nccs1	-2	0.0	2	-10	-0.4	0.4%
CC(C)CNc1c2c(nc3ccccc13)CCC2	-9	-0.9	-26	-16	-4.4	4.8%
CCSC(=O)N1CCCCCC1	10	0.0	6	-3	-1.9	0.2%
Nc1nc(N)c2cnnn2n1	-3	1.3	0	-1	-3.3	0.7%
O=[N+]([O-])CCO	-2	-0.8	-2	3	-3.5	0.1%
